CSC inhib – blocks cancer stem cells; cancer stem cell-like cells viability, luminescence; inhibition, % at 7.5 µM; 300,000 tested, 1.1% active;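 active means mean at 75% or more and at least half the replicates too; inconclusive means mean and replicates disagree; tested in HMLE shEcad cells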;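 further: 0% = median of negative and 100% = median of positive control wells; the first replicate is given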
UUG fidelity – modulators of start codon recognition fidelity in yeast | S. cerevisiae UUG-firefly luciferase reporter, luminescence/redox ratio | activity score, % at 18.7 µM | 350,000 tested, 0.13% active;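 active means replicate mean at a twofold rise or more, about +100% in these data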;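 further: firefly luciferase made from a UUG start codon reports start codon fidelity; reporter light over untreated wells divided by growth signal over untreated wells; some hits fall short of that in this replicate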
Env fusion inh – HIV envelope-mediated fusion inhibition | inhibition, % at 12.3 µM | HeLa-JRFL Env/CEM21 cell fusion, luciferase | AID 651610 | 360,000 tested, 1.1% active;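 active means mean replicate inhibition score of at least 50 and every replicate individually at or above 50; inconclusive means only one of the two criteria met; inactive means mean below 50 and not all replicates reaching 50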;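 further: 0% = plate neutral controls and 100% = maraviroc near 300 nM; one replicate is shown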
MT1-MMP act inh – inhibitors of human MT1-MMP activation; HT1080 RFP-PRO-GFP cells, GFP/RFP ratio fluorescence, overnight; percent of plate control window, DMSO zero; P50281; 360,000 tested, 0.061% active; GFP/RFP ratio change, % at 20 µM; AID 651647;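 active means GFP/RFP ratio change of at least 30% with cell ATP level not reduced by more than half and red fluorescence within 50% of control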; further: strong numbers were not always called active
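Test system: HT1080 cells expressing an RFP-PRO-GFP fluorescent reporter construct / Compound dosing: single-point 20 µM compound, 1% DMSO / Schedule: cells overnight before dosing, compound overnight, 37 °C, 5% CO2 / Evaluation: GFP/RFP fluorescence ratio / Control set: DMSO and RFP-L50D-GFP cell wells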
PABP FP inh – blocks human PABP binding to poly(A) RNA; P11940; fluorescence polarization; inhibition, % at 35 µM; 290,000 tested, 1% active; AID 2014;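 active means 50% or more with normal probe brightness, or confirmed in later tests; inconclusive means above 50% with abnormal brightness, or retests that disagree; inactive means below 50% or failed in later tests; about a fifth of its hits are not listed in these tables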;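 further: calls also rest on retests at 20 µM and on dose response follow-up; controls were probe without protein and protein plus probe with vehicle; some compounds called inactive have numbers as strong as hits; many hits fall short of the cut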
Target sequence (P11940 whole entry, looked up): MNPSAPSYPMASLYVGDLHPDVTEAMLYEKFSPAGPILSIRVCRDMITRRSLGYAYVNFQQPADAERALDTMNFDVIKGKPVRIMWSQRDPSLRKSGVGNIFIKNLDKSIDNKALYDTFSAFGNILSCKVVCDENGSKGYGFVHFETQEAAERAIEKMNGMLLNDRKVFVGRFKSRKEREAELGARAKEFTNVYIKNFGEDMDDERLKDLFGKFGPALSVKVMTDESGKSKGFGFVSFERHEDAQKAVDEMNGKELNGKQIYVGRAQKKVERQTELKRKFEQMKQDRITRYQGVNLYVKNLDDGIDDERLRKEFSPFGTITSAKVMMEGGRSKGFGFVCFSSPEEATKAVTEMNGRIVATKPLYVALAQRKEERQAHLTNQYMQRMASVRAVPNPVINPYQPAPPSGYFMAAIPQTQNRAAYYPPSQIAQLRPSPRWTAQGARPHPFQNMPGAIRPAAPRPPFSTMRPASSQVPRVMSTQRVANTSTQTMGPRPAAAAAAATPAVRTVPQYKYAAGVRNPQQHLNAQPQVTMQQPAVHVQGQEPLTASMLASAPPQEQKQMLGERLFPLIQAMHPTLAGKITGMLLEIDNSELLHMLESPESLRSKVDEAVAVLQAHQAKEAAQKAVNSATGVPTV
Rce1 inhib – inhibitors of yeast Ras-converting enzyme; Q03530; yeast membranes, quenched prenylated peptide cleavage fluorescence; calls only; 290,000 tested, 0.27% active; AID 2563;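 active means fall in fluorescence gain of 50% or more versus controls, with final raw signal at or below 3038400; inconclusive means same 50% fall but final raw signal above 3038400; inactive means fall in fluorescence gain under 50%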;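 further: plate controls were neutral control wells for no effect and wells lacking membranes for full effect; tested at 10 µM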
Target sequence (Q03530 whole entry, looked up): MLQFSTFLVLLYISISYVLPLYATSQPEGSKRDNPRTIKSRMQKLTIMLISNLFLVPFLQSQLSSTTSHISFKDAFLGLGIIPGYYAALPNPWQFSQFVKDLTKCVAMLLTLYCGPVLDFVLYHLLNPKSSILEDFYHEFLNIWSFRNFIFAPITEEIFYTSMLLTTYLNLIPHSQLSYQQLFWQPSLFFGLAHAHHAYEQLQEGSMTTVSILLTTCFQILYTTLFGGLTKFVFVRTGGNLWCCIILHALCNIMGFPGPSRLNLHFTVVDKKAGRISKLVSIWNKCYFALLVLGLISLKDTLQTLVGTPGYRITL
eIF4H FP inh – inhibitors of RNA binding by human eIF4H. eIF4H fluorescence polarization binding assay. inhibition, % at 35 µM. 290,000 tested, 0.94% active;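 active means 50% or more with normal probe brightness, or confirmed in later tests; inconclusive means above 50% with abnormal brightness, or retests that disagree; inactive means below 50% or failed in later tests; about a fifth of its hits are not listed in these tables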;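 further: calls also rest on retests at 20 µM and on dose response follow-up; 0% = protein and probe with vehicle and 100% = probe without protein; strong numbers were not always called active; many hits fall short of the cut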
eIF4H FP inh retest – further read-out of eIF4H FP inh, marked with its call; inhibition, %; compound at 20 µM; confirmation average;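 mean of two retest wells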
PABP FP inh retest – second read-out of PABP FP inh, no call of its own (marks repeat the call); inhibition, %; compound at 20 µM; confirmation repeats;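 mean of two retest wells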
MT1-MMP act inh RFP – further read-out of MT1-MMP act inh, marked with its call; RFP signal change, %; measured here: RFP expression control read;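 0 = vehicle wells; hits needed this value within 50% of zero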
Numbers without * were called inactive; i = inactive; ? = inconclusive; nt = not tested or not shown; & = joins results of further samples.

SMILES	CSC inhib	UUG fidelity	Env fusion inh	MT1-MMP act inh	MT1-MMP act inh RFP	PABP FP inh	Rce1 inhib	eIF4H FP inh	others
COCCCN(C(=O)c1ccco1)c1nc(-c2ccc(OC)cc2)cs1	8	-10	34	1	-7	-9	i	-1
CC(NS(=O)(=O)c1ccc2c(c1)OCCO2)c1ccccc1 (stereo not given)	-13	6	13	-2	2	4	i	-5
O=C(Nc1cccc(F)c1)Nc1cccc(Cl)c1	23	-6	11	3	-12	2	i	-4
COc1ccc(NC(=O)c2ccccc2NS(=O)(=O)c2ccc(CNC(C)=O)cc2)c(OC)c1	nt	-11	-13	-1	-4	5	i	-1
COc1ccc(-c2csc3nc(-c4ccccc4F)oc(=O)c23)cc1	47	-6	4	2	3	-7	i	-5
COc1ccccc1NC(=O)NC1(C(=O)N2CCOCC2)CCCCC1	2	-16	-3	-1	4	9	i	1
CCC(CC)C(=O)N(C)c1c(C)nc2c(OCc3ccccc3C(=O)OC)cccn12	nt	-20	2	5	0	nt	nt	nt
O=C(CC[C@H]1O[C@@H](n2ccc(=O)[nH]c2=O)[C@H](O)[C@@H]1O)N[C@H](Cc1ccccc1)C(=O)NCCCN1CCCC1=O	nt	-12	-13	0	3	nt	nt	nt
COCc1nnc(NC(=O)c2ccc(S(=O)(=O)N3CCCC3)cc2)o1	1	-28	-18	-2	1	-5	i	0
O=S1(=O)c2c(Oc3cccc4ccccc34)cccc2OC(COCc2ccccc2)CN1C1CCCC1 (stereo not given)	nt	-2	-2	-1	-4	nt	nt	nt
O=C1C=C(N2CCOCC2)C2(CCCCC2)O1	-10	nt	12	-2	3	4	i	-9
O=C(Nc1ccc(CN2CCOCC2)cc1)c1cc(Cl)ccc1Cl	nt	-5	-16	1	-3	4	i	5
COC(=O)c1ccc(NC(=O)CSc2nc(=O)n3cccc(C)c3n2)cc1	-8	0	-13	-3	0	nt	i	nt
COc1ccc(Cc2nc3ccc(C(=O)NCC4COCCO4)cc3o2)cc1OC (stereo not given)	nt	-30	4	0	-2	-2	i	-11
Cc1cc(C(=O)N2CCCC2(C)C(=O)O)c(C)o1 (stereo not given)	nt	0	-33	-1	6	nt	nt	nt
Cc1ccc(N(CC(=O)N2CCCC2)S(C)(=O)=O)cc1C	-1	-22	-17	-1	1	13	i	-11
O=CN1CCN(C(=O)c2ccc(-c3nc4ccccc4s3)s2)CC1	9	nt	-17	7	-4	-5	i	0
Cc1cccc(NC(=O)N2CCN(Cc3ccccc3)CC2)c1	-10	-7	-32	5	3	-7	i	5
Cc1cc(C)nc(NS(=O)(=O)c2ccc(NC(=O)C3COc4ccccc4O3)cc2)n1 (stereo not given)	-3	nt	22	-1	-1	-3	i	6
O=C(NC1CCS(=O)(=O)C1)C12CC3CC(CC(C3)C1)C2 (stereo not given)	3	-9	nt	5	-3	2	nt	-3
O=C(CSc1nc(-c2ccc(F)cc2)cs1)Nc1ccccn1	4	-16	1	2	-3	-13	i	1
Cc1cccc(/C=N\Nc2cn[nH]c(=O)c2Cl)c1	12	-10	73*	13	-1	1	i	-5
CN(C)S(=O)(=O)N1CCCC(C(=O)c2ccc(C(F)(F)F)cc2)C1 (stereo not given)	8	nt	16	4	-1	2	i	0
O=C(CC1(O)C(=O)Nc2ccc(Br)cc21)c1ccc2c(c1)OCO2 (stereo not given)	1	-14	-46	-4	4	-12	i	-1
OC(c1ccccc1)(C1CCCCC1)C(CN1CCOCC1)c1ccccc1 (stereo not given)	37	0	33	-19	-17	12	i	3

(more compounds)
SMILES	CSC inhib	UUG fidelity	Env fusion inh	MT1-MMP act inh	MT1-MMP act inh RFP	PABP FP inh	Rce1 inhib	eIF4H FP inh	others
Cc1ccc2c(c1)N(CCC(=O)NCc1cccnc1)C(=O)CO2	-16	-7	12	2	7	-4	i	-10
CC(OC(=O)Cc1c[nH]c2ccccc12)C(=O)NC1(C#N)CCCCC1 (stereo not given)	0	-20	0	-5	-2	-6	nt	-12
Cc1c(Cl)cccc1NC(=O)CSc1nnc(C)n1CC1CCCO1 (stereo not given)	-18	-15	10	0	3	-3	i	2
O=C(Nc1cccnc1Cl)C1=NN(c2ccccc2)C(=O)CC1	6	-13	0	0	1	3	i	-7
O=C(Nc1ccccc1)c1ccccc1NC(=O)[C@H]1CCCC[C@H]1C(=O)O	-7	11	18	2	2	5	i	0
COc1ccc(CCNS(=O)(=O)c2c(C)nc3scc(C)n3c2=O)cc1OC	-17	-31	0	4	4	9	i	7
CN(C(=O)c1cc2c(s1)-c1ccccc1S(=O)(=O)C2)c1ccccc1F	-10	1	4	-2	1	-3	i	3
CC(NC(=O)c1cc(-c2ccc3c(c2)OCO3)nc2ccccc12)C(C)(C)C (stereo not given)	-11	-8	-23	3	-3	-1	i	-4
CCC(=O)N1CCN=C1SCc1ccc(Cl)cc1	3	-15	nt	-2	1	-3	i	0
O=C(CSc1nnc(-c2ccccc2Cl)o1)N1CCCC1	nt	-19	-24	2	9	-5	i	-3
O=C1OC(c2ccccc2)/C(=C(/O)c2ccccc2)C1=O (stereo not given)	nt	-25	nt	2	-2	9	i	-16
COc1ccc(C(=O)COC(=O)/C=C/c2ccccc2)cc1	2	-1	5	-1	2	7	i	6
COc1cccc(-c2cnc3c(c2)C(=O)N([C@H](C)CO)C[C@@H](C)[C@H](CN(C)C(=O)Nc2ccccc2F)O3)c1	nt	12&13	26	1	7	nt	nt	nt
CCc1ccccc1NC(=S)N=Nc1c(O)n(C)c2ccc(S(=O)(=O)N3CCOCC3)cc12	40	nt	8	4	-3	-6	i	-4
O=C(CSc1nc2ccc([N+](=O)[O-])cc2[nH]1)NC1CCCC1	nt	nt	19	1	0	-1	i	4
O=C(N/N=C/C1CC=CCC1)c1cc(Br)ccc1O (stereo not given)	2	-10	9	1	5	-12	i	2
Cc1ccc(C(=O)Nc2ccc(C(=O)O)cc2)cc1S(=O)(=O)Nc1cccc([N+](=O)[O-])c1	nt	nt	18	2	4	-3	i	2
COc1ccc(C(=O)N2CCOCC2c2cc(C(=O)NCc3ccccc3)no2)cc1 (stereo not given)	nt	-1	8	-3	3	nt	nt	nt
Cc1ccc(C(=O)N2CC(C)OC(C)C2)cc1[N+](=O)[O-] (stereo not given)	17	nt	-92	-4	0	-2	i	-3
O=C(CSc1nnc(CNC(=O)c2ccc(F)cc2)o1)NCc1ccccc1Cl	-5	-6	-9	-1	2	-8	i	-3
COC(C(=O)N/N=C(\C)CC(=O)Nc1ccc(N(C)C)cc1)c1ccccc1 (stereo not given)	-2	nt	-5	4	4	-8	i	-5
C=CCC1Cc2c(cccc2[N+](=O)[O-])C(CC=C)N1 (stereo not given)	-19	nt	1	-1	2	2	i	-6
CC1=CC2=NC(=O)CC(C)(C(=O)N(CC(=O)NC(C)(C)C)Cc3ccccc3)N2C=C1 (stereo not given)	1	5	16	1	4	-3	?	-6
Cc1c(C(=O)NN)[nH]c2ccc([N+](=O)[O-])cc12	-5	-6	-17	-4	-9	7	i	-1
Cc1ccc(-n2nnnc2SCC(=O)Nc2ccccc2N2CCCCC2)cc1C	19	9	nt	-7	-21	-2	nt	5

Following part
SMILES	CSC inhib	UUG fidelity	Env fusion inh	MT1-MMP act inh	MT1-MMP act inh RFP	PABP FP inh	Rce1 inhib	eIF4H FP inh	others
CC(C)(C)CNC(=O)C1(C)CCN1C(=O)c1ccccc1CCc1ccccc1 (stereo not given)	nt	-6	34	2	-4	nt	nt	nt
c1cncc(-c2nn3cnnc3s2)c1	-14	-11	-44	5	2	-5	i	-10
COc1ccccc1NC(=O)C(C(C)C)N1C(=O)c2ccccc2C1=O (stereo not given)	10	-8	-2	5	1	1	i	14
CCOCCn1c(SCCc2ccccc2)nc2c1c(=O)[nH]c(=O)n2C	-7	7	1	1	4	-7	i	4
CCC(C)N=C1SCC(C)(/C=N/O)S1 (stereo not given)	-4	0	-12	-1	3	-6	nt	-3
Cc1cccc(SCc2noc(C(=O)NCC3CCCO3)c2C(=O)O)c1 (stereo not given)	-2	-4	-1	2	4	3	i	-9
Cc1cc(C(=O)NN=C(Cc2ccccc2)Cc2ccccc2)c(C)o1	41	-9	-3	4	7	7	i	0
O=C(CCc1nnc2ccc(NCc3ccco3)nn12)Nc1ccc(F)cc1	-2	-17	-4	-2	1	13	i	52	eIF4H FP inh retest=16;PABP FP inh retest=7
CC(C)(C)NC(=O)NC(=O)CN1CCCc2ccccc21	1	2	2	-39	14	-8	i	-2
COc1ccccc1C(CNC(=O)CCNC(=O)c1ccccc1Cl)N1CCCC1 (stereo not given)	-13	nt	-3	4	-4	nt	i	nt
O=C(NC(=S)NCCC1=CCCCC1)c1cncc(Br)c1	2	-19	1	-7	-2	3	i	3
COc1ccc(C(=O)NCC2(c3ccccc3)CCOCC2)cc1[N+](=O)[O-]	-6	nt	-4	-1	2	21	i	-2
O=C(Nc1ccc(O)c2c(=O)cc(-c3cccc(Cl)c3)oc12)c1ccc(F)cc1	7	-18	23	-3	1	8	i	4
CC/C(=C\c1ccc(Cl)cc1)c1ccncc1	nt	-12	9	1	-2	nt	nt	nt
O=C(CSc1nnc(SCc2ccc(Cl)cc2)s1)c1ccc2c(c1)OCO2	-2	-3	23	1	2	6	i	-7
O=C(Cn1cnc2sc3c(c2c1=O)CCCC3)NCC(=O)Nc1c(F)cc(F)cc1Br	-9	-14	2	0	-5	3	i	21
COc1ccccc1C(c1nnnn1C1CCCC1)N1CCN2CCCC2C1 (stereo not given)	nt	-7	nt	-10	0	0	i	-1
CCn1c(=O)c2cc(C(=O)N3CCOCC3)sc2c2ccccc21	-3	0	10	1	1	-4	i	-9
COc1ccc(C(=O)N2CCN(Cc3ccccc3)CC2)cc1[N+](=O)[O-]	-4	-24	13	8	-7	6	i	-10
Cc1nn(CC(=O)NC2CCC(C)CC2)c(=O)c(C#N)c1C (stereo not given)	-6	-20	22	-3	6	nt	i	nt
COc1ccc(C(=O)OCC(=O)Nc2cccc(C(C)=O)c2)c(OC)c1OC	-2	-9	7	-3	-3	6	i	-4
Cc1cc(-c2ccc3ccccc3c2)n2ncnc2n1	-5	nt	0	0	2	23	i	-8
CCOc1ccccc1C(=O)NN1CCOCC1	10	17	-10	-1	5	-14	i	9
COc1ccccc1NC(=O)C1CCCN(c2cnccn2)C1 (stereo not given)	nt	-10	9	3	4	-7	i	-6
O=C(NNc1nc(-c2ccc(F)cc2)cs1)c1ccccc1	16	nt	5	12	-2	5	i	1
CC(=NCCCn1ccnc1)C1=C(O)c2ccccc2C1=O	-2	-14	-11	0	-2	0	i	5
O=C(O)CC/C(=C\c1cc([N+](=O)[O-])ccc1Cl)c1nc2ccccc2s1	4	nt	nt	3	6	2	i	-3
COC(=O)c1ccc(NC(=O)CSc2nn3c(=O)c(C)nnc3s2)cc1	-1	-8	-13	2	3	-15	i	3
O=C(Nc1ccc(/C=C/c2nc3ccccc3o2)cc1)c1c(F)cccc1F	37	-7	nt	0	-12	2	i	-6

Reprinted at random: 3 compounds from above, in no set order.
SMILES	CSC inhib	UUG fidelity	Env fusion inh	MT1-MMP act inh	MT1-MMP act inh RFP	PABP FP inh	Rce1 inhib	eIF4H FP inh	others
Cc1nn(CC(=O)NC2CCC(C)CC2)c(=O)c(C#N)c1C (stereo not given)	-6	-20	22	-3	6	nt	i	nt
Cc1cccc(SCc2noc(C(=O)NCC3CCCO3)c2C(=O)O)c1 (stereo not given)	-2	-4	-1	2	4	3	i	-9
COc1ccccc1C(c1nnnn1C1CCCC1)N1CCN2CCCC2C1 (stereo not given)	nt	-7	nt	-10	0	0	i	-1

Screening data: PubChem BioAssay, several laboratories
